Screening results (PubChem BioAssay)
RecA intein inh: inhibitors of M. tuberculosis RecA intein splicing | AID 2221 | cell-free RecA intein splicing, fluorescence | hit rate 0.75% among 290,000 | inhibition, %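 (about 9 µM by stock and volumes)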; in the data active means inhibition above about 30%; inconclusive means no clear call, values can overlap the other calls;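 further: 0% = vehicle wells and 100% = reference inhibitor control wells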
Target sequence (P9WHJ3 whole entry, looked up): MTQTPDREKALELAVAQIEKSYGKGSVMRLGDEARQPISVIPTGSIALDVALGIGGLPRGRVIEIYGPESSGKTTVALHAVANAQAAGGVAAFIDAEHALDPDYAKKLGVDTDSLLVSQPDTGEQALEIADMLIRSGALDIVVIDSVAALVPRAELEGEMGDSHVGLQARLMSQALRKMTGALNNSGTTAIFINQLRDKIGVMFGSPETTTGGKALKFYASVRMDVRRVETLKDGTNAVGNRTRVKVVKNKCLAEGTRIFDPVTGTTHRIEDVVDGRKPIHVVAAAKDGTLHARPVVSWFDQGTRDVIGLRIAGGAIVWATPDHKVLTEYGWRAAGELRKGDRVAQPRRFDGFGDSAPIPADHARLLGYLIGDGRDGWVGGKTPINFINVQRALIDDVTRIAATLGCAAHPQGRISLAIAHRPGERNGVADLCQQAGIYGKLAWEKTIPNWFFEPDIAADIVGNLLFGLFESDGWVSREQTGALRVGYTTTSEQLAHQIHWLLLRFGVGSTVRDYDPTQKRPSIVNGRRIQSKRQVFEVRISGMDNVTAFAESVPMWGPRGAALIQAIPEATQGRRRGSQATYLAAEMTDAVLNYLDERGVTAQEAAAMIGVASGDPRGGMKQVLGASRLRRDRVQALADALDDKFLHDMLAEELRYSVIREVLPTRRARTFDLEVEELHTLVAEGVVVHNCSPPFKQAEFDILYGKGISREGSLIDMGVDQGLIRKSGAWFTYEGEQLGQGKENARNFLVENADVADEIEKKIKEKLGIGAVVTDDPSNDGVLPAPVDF
Mtb H37Rv: M. tuberculosis H37Rv growth inhibitors, H37Rv strain (AID 1626); M. tuberculosis H37Rv growth inhibition; higher % means a stronger effect; one-dose inhibition, % at 10 µM; IC50 in µM for titrated hits; hit rate 0.95% among 220,000;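 active means confirmed in a dose series; inconclusive means inhibition above 80% but not taken into the dose series; inactive means below 80% or under 30% at every dose of the series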;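 further: bacteria incubated seven days before Alamar blue readout; 0% = bacteria only wells and 100% = bacteria with antibiotic wells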
Mtb bLac sens: beta-lactam sensitization of Mtb H37Rv; M. tuberculosis H37Rv growth with meropenem, percent inhibition; hits of this screen are not shown here; inhibition, % at 25 µM; hit rate 0.27% among 330,000;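 active means about 74% or more and at least 40 points above the plate without the antibiotic, then above 30% in a dose series; inconclusive means first-round hits that could not be retested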;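 further: growth measured after seven days incubation then overnight dye step; 0% = bacteria only wells and 100% = bacteria with antibiotic; twin plates without the antibiotic show which effects depend on it; some results filed as inactive read as strong as hits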
YopH PTP inh: YopH (Yersinia) phosphatase inhibition | fluorescence Ex485/Em525 | inhibition, %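 (about 10 µM by stock and volumes)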 | hit rate 0.16% among 140,000;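 active means inhibition of 50% or more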;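 further: controls were vehicle for no effect and minimum signal wells for full effect; inactives centre near -20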
Arbovirus anti: arbovirus infection inhibition. inhibition, % at 10 µM. AID 1251. arbovirus infection cell-based antiviral screen. hit rate 0.37% among 200,000;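 active means inhibition from about 30%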;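 further: bluetongue infection of BSR cells; cell survival read as ATP light after 72 h; 0% = infected wells without compound and 100% = uninfected wells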
Arbovirus anti repeat: further read-out of Arbovirus anti, marked with its call; inhibition, %; measured here: 10K subset replicate screen; many hits read low in the repeat;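 first of two repeat runs on a subset; 0% = infected and 100% = uninfected wells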
Numbers without * were called inactive; ? = inconclusive; . = no result given. Some of the compounds tested; rates above refer to the full screens.

SMILES	RecA intein inh	Mtb H37Rv	Mtb bLac sens	YopH PTP inh	Arbovirus anti	others
NC(=O)C1CCN(c2nc(C3CC3)nc3c2nnn3Cc2ccccc2Cl)CC1	-1.7	-2%	?	-27	-2	Arbovirus anti repeat=1
COc1ccc(-n2c(-c3ccco3)nc3ccccc3c2=O)cc1	-2.2	-3%	-16	.	-5
CC1CN(C(=O)c2scc3c2OCCO3)CC(C)O1 (stereo not given)	.	0%	-8	13	12
CCNC(=O)CC1C(=O)N(c2cccc(C)c2)C(=O)N1CCC(C)C (stereo not given)	-1.8	.	-6	.	.
Cc1cccc(C)c1Nc1nnc(SCC(=O)c2ccc(Br)s2)s1	0.0	0%	-1	-17	16
CCN(CC)c1ccc(NC(=O)c2ccco2)cc1	-0.9	-1%	24	-27	5
CC(=O)Nc1ccccc1C(=O)C(=O)Nc1cccc(C(=O)N2CCC3(CC2)OCCO3)c1	-3.2	2%	-4	.	13
CCC1(C)Cc2c(sc3nc(NN)n(C)c(=O)c23)CO1 (stereo not given)	-3.6	-11%	9	-6	-28
Cc1ccc(/C=N/Nc2ccc3ccccc3n2)o1	-6.7	-3%	6	.	23
C#CCOCCOCCOCCNc1nc(N2CCN(C(=O)[C@H](CCCCN)n3cc(C(N)CO)nn3)CC2)nc(N2CCN(C(=O)[C@H](CCC(=O)O)n3cc(C(N)CC(C)C)nn3)CC2)n1 (stereo not given in full)	1.9	-9%	.	.	.
O=C(Nc1ccc(F)cc1)c1ccc(CSc2ccc(Cl)cc2)o1	.	-13%	3	.	.
C=CCc1ccccc1OCC(=O)OCCNC(=O)c1cccnc1	-3.1	-1%	2	-43	0
O=C1NC(=O)N(c2ccc(F)cc2)C(=O)/C1=C/c1ccc2c(c1)CCCN2Cc1ccccc1	-1.8	-10%	.	13	0
COc1ccc(Nc2ncnc3c2cnn3-c2cccc(C)c2)cc1OC	1.2	5%	.	.	.
CCOCC(=O)Nc1ncc(S(=O)(=O)c2ccc([N+](=O)[O-])cc2)s1	1.2	4%	4	.	1
Cc1ccc(-c2csc3ncnc(-n4cnc5ccccc54)c23)cc1	4.2	6%	16	-30	7
O=c1[nH]c2ccccc2nc1N1CCOCC1	-2.7	-5%	-6	19	-1
CC(C)(C)C(=O)NC(=S)Nc1sc2c(c1C#N)CCCCC2	-1.2	9%	5	-24	6
COc1ccc(S(=O)(=O)NCC(c2ccc(F)cc2)N2CCN(C)CC2)cc1 (stereo not given)	-1.1	.	-2	.	.
O=C(c1cc2sccc2n1Cc1ccccc1)N1CCc2ccccc21	0.3	1%	3	-5	-11
Cc1cc(C)n2nc(SCC(=O)N(C)Cc3ccccc3)nc2n1	5.0	-5%	-4	-120	-1
Cc1ccc(C2(c3noc(CN(C)CCO)n3)CCCC2)cc1	-0.9	0%	2	.	4
O=C(Cc1ccc(Cl)cc1)Nc1ccncc1	-0.1	-3%	0	.	8
CC(=O)Nc1ccc(Nc2cc(C)nc3c(-c4ccccc4)cnn23)cc1	.	73%	-2	-30	-12
C=CCn1c(SCc2nc3ccccc3c(=O)[nH]2)nc2scc(C3CC3)c2c1=O	2.6	3%	-8	.	.

Further structures:
SMILES	RecA intein inh	Mtb H37Rv	Mtb bLac sens	YopH PTP inh	Arbovirus anti	others
COCc1cc(CN2CCN(C)CC2)c(O)c2ncccc12	-8.2	-6%	6	-18	-29
Cc1ccccc1-c1ncc(CN2CCC(CO)(CCCc3ccccc3)CC2)cn1	0.0	70%	17	.	-10
Nc1nc2ccccc2n1C(=O)c1ccccc1	-2.1	22µM*	90	.	-13
COCCNC(=O)Cn1nc(-c2ccccc2C)ccc1=O	-1.4	.	4	.	.
Cc1cccc(-n2nc3c(c2NC(=O)C(C)C)CSC3)c1	2.6	.	3	.	.
CCOC(=O)C1=C(CCc2ccccc2)NC(=O)NC1c1cccc([N+](=O)[O-])c1 (stereo not given)	0.9	.	-5	.	.
CCN1CC2=C(OC(N)=C(C#N)C2c2cccs2)/C(=C/c2cccs2)C1 (stereo not given)	9.1	1%	-5	-2	7
O=C(O)CCNC(=O)/C(=C\C=C\c1ccccc1)NC(=O)c1ccccc1	0.2	4%	-3	.	.
O=C(Nc1ccc2oc(-c3ccccc3)nc2c1)c1ccco1	3.6	5%	30	-10	-8
CC(=O)Nc1ccc(NC(=O)CCCCCN2C(=O)c3ccccc3C2=O)cc1	1.1	2%	-4	-28	5
Cc1ccc(Sc2ccncc2S(N)(=O)=O)cc1	-1.4	9%	6	-39	3
COc1cc([N+](=O)[O-])ccc1NC(=O)NN1CCN(C)CC1	1.8	.	5	.	.
COc1ccc(-c2ccc(=O)n(CC(=O)NCc3ccco3)n2)cc1	1.8	-3%	12	-38	-7
COc1ccc2c(c1)c(=O)oc1cc(OCC(=O)N3CCCC(C)C3)ccc12 (stereo not given)	-19	-2%	2	-19	0
CCCn1c(=O)c(C(=O)N/N=C/c2ccccc2F)c(O)c2ccccc21	-1.5	55%	100	.	9
COc1cc(CNC2CCCC2)cc(OC)c1	-2.2	-8%	2	-43	-1
O=C(CN1C(=O)c2ccccc2C1=O)Oc1ccc(Cl)cc1	15	.	2	.	.
Cc1ccnc(NC(=O)CCC(=O)N(CC(=O)NCCc2ccccc2)c2ccc(F)cc2)c1	-2.8	.	0	.	.
O=C(O)c1c(-c2ccccc2)oc2ccc(O)cc12	-4.4	.	1	.	.
COc1ccc2oc(C(=O)OCC(=O)NCC3CCCO3)c(C)c2c1 (stereo not given)	-3.0	.	-3	.	.
COc1ccc(NC2c3ccccc3C(=O)N2Cc2ccc3c(c2)OCO3)cc1 (stereo not given)	-1.8	-2%	-5	.	.
ON=C1c2ccccc2-c2ccccc21	5.9	.	22	.	.
CC(=O)Nc1ccc(S(=O)(=O)N2C(=O)c3cccc4cccc2c34)cc1	-14	-6%	-2	.	.
CC(NC(=O)/C(C#N)=C/c1ccc([N+](=O)[O-])o1)c1ccccc1 (stereo not given)	47*	.	100	.	.
COc1cc(NC(=O)c2ccccc2Cl)c(OC)cc1NC(=O)CN1CCOCC1	5.0	51%	86	-31	8

Continuation.
SMILES	RecA intein inh	Mtb H37Rv	Mtb bLac sens	YopH PTP inh	Arbovirus anti	others
Cc1ccc2cc3c(NC(=O)C4CCCO4)nn(CC(C)C)c3nc2c1 (stereo not given)	-116	-1%	14	2	0
O=C(COC(=O)c1ccccc1Br)Nc1cc(S(=O)(=O)N2CCOCC2)ccc1N1CCCC1	4.8	4%	-3	.	20
CC(=O)Nc1cccc(NC(=O)c2cccc(S(=O)(=O)N3CCN(Cc4ccccc4)CC3)c2)c1	5.7	.	-9	.	.
C=CSc1sc(Cl)c(N2CCOCC2)c1[N+](=O)[O-]	30*	3%	8	.	5
O=C(CSc1nc(C2CC2)nc2ccccc12)Nc1ccccc1	-0.4	.	-3	.	.
COCCCn1c(=O)/c(=C\c2ccccc2OC(F)F)s/c1=C(/C#N)C(=O)NC(C)C	-3.8	7%	3	-16	7
COc1cccc(-c2noc(CCC(=O)NCC3CCCO3)n2)c1 (stereo not given)	-0.1	7%	-4	.	-3
CC(C)C(C(=O)NCC1CCCO1)N(Cc1ccccc1)C(=O)CNS(=O)(=O)c1ccccc1 (stereo not given)	0.8	.	7	.	.
CCCC(=O)Nc1cc(Cl)ccc1C	-5.7	-4%	-4	.	9
Cc1cccc(C(=O)NCc2nnc(SCC(=O)Nc3nnc(C)s3)n2C)c1	-1.4	.	2	.	.
O=C(NC1CCCCC1)C(=S)NC1CCCCC1	-1.5	-2%	-8	.	3
COc1ccc(OC)c(NC(=O)c2oc3c(c2C)C(O)CC(C)(C)C3)c1 (stereo not given)	-0.8	.	2	.	.
CCOc1ccc(NC(=O)CCN2C(=O)C3CCCCC3C2=O)cc1OCC (stereo not given)	4.3	.	-19	.	.
CCOC(=O)C(=O)Nc1ccccc1C(=O)OCC	-3.2	-4%	-2	.	1
COCCOC(=O)c1cc(C(=O)c2cc(Cl)ccc2O)coc1=N	-5.4	-8%	5	.	5
O=C(O)CNC(=O)C12CC3CC(CC(Cl)(C3)C1)C2	-1.8	-1%	-8	.	3
CC1=C(C(=O)NCc2ccccc2)C(c2ccc(C)o2)n2ncnc2N1 (stereo not given)	1.9	-1%	-15	-33	5
Nc1ccc(O)cc1C(=O)OCC(=O)c1ccc(C2CCCCC2)cc1	2.1	-5%	-2	-24	1
O=C(Nc1ccc(F)cc1)C1CCCN(S(=O)(=O)c2ccc(-n3cnnn3)cc2)C1 (stereo not given)	-1.1	.	4	.	.
CCc1nnc(NC(=O)c2sc3nc4c(cc3c2N)CCCCCC4)s1	-54	0%	27	-29	-24
O=S(=O)(NC1=NCCC1)c1cccc(NS(=O)(=O)c2ccc(OC(F)(F)F)cc2)c1	-0.6	-12%	-6	-43	6
COc1ccccc1-n1c(SC(C)C(=O)NCC2CCCO2)nc2cc(Cl)ccc2c1=O (stereo not given)	6.8	.	-19	.	.
CCOc1ccc(OCCOc2ncnc3ccccc23)cc1	0.7	4%	14	20	2
Nc1cccnc1Sc1cc(Cl)c(Cl)cc1Cl	4.1	-2%	1	-28	-6
O=C(CSc1nccc(=O)[nH]1)Nc1ccc(N2CCOCC2)cc1	-5.2	.	5	.	.

Brought forward from above: 2 compounds; new compounds follow.
SMILES	RecA intein inh	Mtb H37Rv	Mtb bLac sens	YopH PTP inh	Arbovirus anti	others
Nc1cccnc1Sc1cc(Cl)c(Cl)cc1Cl	4.1	-2%	1	-28	-6
O=C(CSc1nccc(=O)[nH]1)Nc1ccc(N2CCOCC2)cc1	-5.2	.	5	.	.
CC1(C)C=Cc2cc(-c3coc4cc(O)cc(O)c4c3=O)cc(O)c2O1	5.7	4%	2	.	.
COc1ccc(O[C@H]2C=C[C@@H](c3ccccc3)O[C@@H]2CO/N=C/C[C@@H]2C=C[C@H](OC(C)=O)[C@@H](COC(C)=O)O2)cc1	2.7	.	-5	-3	6
COc1ccc(NC(=O)CC(CC(=O)O)c2cc(OC)c(OC)c(OC)c2)cc1 (stereo not given)	-1.4	-10%	-9	.	.
CCC(C)NC(=O)CSc1c2c(nc3ccccc13)CCCC2 (stereo not given)	14	4%	0	.	6
CN1CCC(CNC(=O)Nc2ccccc2)(c2ccccc2)CC1	1.1	.	-3	.	.
CC(=O)Nc1ccc(N2C(=O)c3ccc(C(=O)Nc4nnc(SCc5ccc(F)cc5)s4)cc3C2=O)cc1	1.5	-1%	0	.	-6
Cc1ccccc1C(=O)N1CCC(C(=O)Nc2ccc3c(c2)OCO3)CC1	1.6	-2%	4	-31	-4
COc1cc(C(C(=O)NCC2CCCO2)N(C(=O)Cn2nnc3ccccc32)c2ccc(C(C)=O)cc2)ccc1O (stereo not given)	-3.1	.	-7	.	.
S=c1[nH]nc(-c2ccc(Cl)cc2)n1-c1cccnc1	-0.4	-6%	-10	.	.
Cn1nnnc1NCc1c(F)cccc1Cl	-4.2	-4%	-4	-167	5
COc1ccc(S(=O)(=O)NCc2csc(C)n2)cc1	-0.5	4%	-6	4	2
O=C(N/N=C/c1cn(-c2ccccc2)nc1-c1ccc(F)cc1)c1ccc2c(c1)OCO2	8.6	39%	72	6	-14
O=C(COC(=O)CNC(=O)c1ccco1)Nc1ccccc1OC(F)F	-3.6	0%	-8	.	25
Nc1nc(SCC(=O)NCCO)nc2sc3c(c12)CCCC3	0.3	-2%	-9	.	4
Cc1ccc(NS(=O)(=O)c2ccc(Br)s2)cc1S(=O)(=O)N1CCOCC1	4.1	9%	-6	.	8
O=C1CSC(c2cn(-c3ccccc3)nc2-c2cccs2)N1CC1CCCO1 (stereo not given)	5.3	1%	-4	-11	-19
CCOc1cc(/C=C2\SC(=N)N(c3nonc3N)C2=O)ccc1OCC(N)=O	-2.9	4%	-2	-21	-16
Cc1nc(N)sc1-c1nnc(SCC(=O)Nc2nccs2)n1C	0.4	-10%	3	-1	2
COc1ccc(OC)c(-n2nnnc2SCC(=O)Nc2ccc(C(=O)N3CCCCC3)cc2)c1	-0.8	6%	-15	-17	-18
CCOc1ccc(CCNC(=O)COC(=O)c2cc(=O)[nH]c3ccccc23)cc1OCC	-0.5	.	-1	.	.
COc1ccccc1CNC(=O)C/C(C)=N/NC(=O)Cc1ccccc1	-2.0	-12%	1	2	-2

Part of the list above in order of length of the SMILES, rising.
SMILES	RecA intein inh	Mtb H37Rv	Mtb bLac sens	YopH PTP inh	Arbovirus anti	others
Cc1ccc(/C=N/Nc2ccc3ccccc3n2)o1	-6.7	-3%	6	.	23
C=CSc1sc(Cl)c(N2CCOCC2)c1[N+](=O)[O-]	30*	3%	8	.	5
Cc1ccc(-c2csc3ncnc(-n4cnc5ccccc54)c23)cc1	4.2	6%	16	-30	7
COc1ccc(OC)c(NC(=O)c2oc3c(c2C)C(O)CC(C)(C)C3)c1 (stereo not given)	-0.8	.	2	.	.
CCOCC(=O)Nc1ncc(S(=O)(=O)c2ccc([N+](=O)[O-])cc2)s1	1.2	4%	4	.	1
O=C1NC(=O)N(c2ccc(F)cc2)C(=O)/C1=C/c1ccc2c(c1)CCCN2Cc1ccccc1	-1.8	-10%	.	13	0
